# Screens as filed in PubChem BioAssay.
# ALR inh = inhibitors of human ALR sulfhydryl oxidase, primary screen, biochemical, H2O2 detection, HRP-luminol luminescence, single point | FAD-linked sulfhydryl oxidase ALR (Homo sapiens), P55789 | AID 485317, 2010 | inhibition, % (concentration not given with the values) | hit rate 3.8% among 290,000 | purified ALR, DTT oxidation;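 active = mean and each replicate at 75% or more; inconclusive = only one of the two met; inactive = neither met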;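 note: stock transfer was 7.5 nL into about 7.5 µL; 0% = neutral wells and 100% = wells with inactivated enzyme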
# HNF4A DNA FP = change in binding of human HNF4A to DNA, primary screen, biochemical, fluorescence polarization, FITC-DNA; 1 h; Hepatocyte nuclear factor 4-alpha (Homo sapiens), P41235; hit rate 0.3% among 360,000; activity change, % at 10 µM; in the data active = activity change above about 30%, passing the limit was not always enough;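 note: controls were the assay level and a saturating level of protein; the project sought stronger binding though the title names inhibitors; some compounds called inactive have numbers as strong as hits; positive values seem to mean higher polarization but the record does not say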
# UCH37 inh = inhibitors of human UCH37 deubiquitinase, primary screen, biochemical, Ub-AMC cleavage, fluorescence | Ubiquitin carboxyl-terminal hydrolase isozyme L5 (Homo sapiens), Q9Y5K5 | purified proteasome/UCH37 | inhibition, % (concentration not given with the values) | hit rate 0.33% among 330,000 | AID 588478, 2011;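 active = mean of two replicates above 20%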;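 note: 0% = compound-free wells with enzyme and 100% = wells lacking proteasome; stock transfer was 100 nL into about 20 µL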
# Target sequence (Q9Y5K5 whole entry, looked up): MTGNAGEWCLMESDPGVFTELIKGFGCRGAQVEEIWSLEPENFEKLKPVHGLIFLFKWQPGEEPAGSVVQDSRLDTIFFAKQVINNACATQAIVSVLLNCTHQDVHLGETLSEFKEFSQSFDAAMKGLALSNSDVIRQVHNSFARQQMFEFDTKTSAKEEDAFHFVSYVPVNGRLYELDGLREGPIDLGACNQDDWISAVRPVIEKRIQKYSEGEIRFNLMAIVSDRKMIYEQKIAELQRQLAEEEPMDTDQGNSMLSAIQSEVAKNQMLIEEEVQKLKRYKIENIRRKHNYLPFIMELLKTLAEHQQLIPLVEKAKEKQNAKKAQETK
#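 Assay system: Proteasome-bound UCH37. Buffer or medium: pH 7.4 Tris-HCl (50 mM) with ovalbumin, ATP-MgCl2, DTT. Incubation: 30 min preincubation with enzyme, 25 min cleavage at room temperature. Measured by: fluorescence, ex 355 nm, em 460 nm. Read-out basis: percent inhibition. Control set: wells without proteasome as full block, compound-free enzyme plus substrate as uninhibited.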
# E coli growth = E. coli growth inhibition, primary screen, OD600; AID 1053175, 2014; OD600 absorbance (concentration not given with the values); hit rate 0.21% among 330,000; Escherichia coli growth, 23 h; stronger effect = lower value;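 active = OD600 absorbance below the run mean of sample wells minus 3.6 SD, in any replicate, cut at about 0.56 in these data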;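 note: stock transfer was 300 nL into about 60 µL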
# rRNA inh HTS = reduced GFP signal of wild-type E. coli, primary screen, bacterial rRNA inhibitor project, GFP/RFP fluorescence, OD600, single point. AID 720706, 2013. GFP signal change (wild-type ribosome), % (concentration not given with the values). hit rate 1.6% among 350,000. E. coli WT GFP vs humanized-ribosome RFP mutants, 24 h; stronger effect = lower value; DMSO median 0, no signal -100;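 active = significant combined selectivity score with lowered wild-type GFP, culture density cut under 30%, mutant RFP and density less affected; inactive = any of these conditions unmet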; note: one replicate is shown; some compounds called inactive have numbers as strong as hits
# Beta2AR agonist = beta2AR agonists driving receptor internalization, primary screen, cell-based, FAP fluorogen, flow cytometry. hit rate 0.43% among 340,000. Beta-2 adrenergic receptor (Homo sapiens), P07550. response, % (test concentration not listed). AID 504454, 2011. Am2.2-beta2AR cells; reference of the scale not given here;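 active = response above a set limit, near 3 SD of response in nonfluorescent compounds, cut at about 42% in these data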;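 note: stock transfer was 100 nL into about 11 µL; a reference agonist was the positive control; negative values mostly stem from fluorescent compounds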
# Target sequence (P07550 whole entry, looked up): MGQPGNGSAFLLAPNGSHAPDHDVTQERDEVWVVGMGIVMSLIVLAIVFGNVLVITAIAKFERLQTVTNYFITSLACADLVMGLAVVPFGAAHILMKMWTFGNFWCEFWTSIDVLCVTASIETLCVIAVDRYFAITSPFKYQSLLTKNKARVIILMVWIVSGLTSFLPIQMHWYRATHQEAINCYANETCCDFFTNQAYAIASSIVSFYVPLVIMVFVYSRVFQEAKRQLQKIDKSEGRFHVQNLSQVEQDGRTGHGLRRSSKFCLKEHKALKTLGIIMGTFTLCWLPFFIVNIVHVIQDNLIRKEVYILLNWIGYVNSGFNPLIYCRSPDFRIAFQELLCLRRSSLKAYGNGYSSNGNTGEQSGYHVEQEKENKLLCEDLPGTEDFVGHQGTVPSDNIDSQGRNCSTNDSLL
# FGF22 binding = binders of human FGF22 protein, primary screen, FGF22 synaptogenesis inhibitor project, biophysical, thermal shift, single point. Fibroblast growth factor 22 (Homo sapiens), Q9HCT0. recombinant FGF22 thermal shift, SYPRO orange fluorescence; percent of sucrose octasulfate shift, DMSO zero. calls only at 9.99 µM. hit rate 1.5% among 340,000. AID 651658, 2012;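 active = melting point raised past a set limit in the mean and every replicate; inconclusive = no clear call; three in four hits are not shown here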
# Target sequence (Q9HCT0 whole entry, looked up): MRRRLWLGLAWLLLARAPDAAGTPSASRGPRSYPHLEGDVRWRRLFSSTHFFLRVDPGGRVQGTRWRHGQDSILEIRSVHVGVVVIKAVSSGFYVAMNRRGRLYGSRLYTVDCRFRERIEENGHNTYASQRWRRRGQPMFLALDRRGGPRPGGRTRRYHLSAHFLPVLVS
# rRNA inh HTS OD600 = second read-out of rRNA inh HTS, no call of its own (marks repeat the call); OD600 change, %; measured here: OD600 growth;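 optical density of the mix in the first replicate; 0 = DMSO median and -100 = no signal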
# rRNA inh HTS RFP = recorded beside rRNA inh HTS, whose call it bears; RFP signal change, %; measured here: RFP humanized mutant strains;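 first replicate; 0 = DMSO median and -100 = no signal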
# * = called active by the depositor; i = inactive; ? = inconclusive; . = no result given. An excerpt (hit frequency here may not be typical).
smiles	UCH37 inh	E coli growth	FGF22 binding	Beta2AR agonist	ALR inh	rRNA inh HTS OD600	HNF4A DNA FP	rRNA inh HTS RFP	rRNA inh HTS
CCOC(=O)C1=C(c2ccccc2)N=C2SCC(=O)N2C1c1ccc(OC)c(OC)c1 (stereo unspecified)	1.2	0.67	.	-5	-2	14	-0.7	1.2	12
Fc1ccc(OCc2nc(-c3ccncc3)n[nH]2)cc1	0.5	0.63	i	6	-1	-1	-2.8	2.2	10
C/C(Cc1ccccc1)=N\NC(=O)CNC(=O)c1ccccc1	.	.	i	-3	4	3	-1.1	-7.5	8
Cc1ccc(C(=O)N2CCOCC2)cc1S(=O)(=O)Nc1cccc(C)c1C	-0.4	0.77	.	-1	-1	.	-1.2	.	.
COCCNC(=O)CN(C(=O)c1ccc(N2CCCC2)nc1)c1ccc(F)c(Cl)c1	.	.	i	-18	12	9	5.3	1.9	6
Cc1cc(C(=O)CSc2nnc(C3COc4ccccc4O3)n2C)c(C)n1-c1ccc(F)cc1 (stereo unspecified)	2.5	0.76	.	5	-9	.	-0.3	.	.
C=CC[C@H](CC(=O)N(CCO)Cc1ccccc1)C(=O)N[C@@H](C)COC(=O)[C@@H](CC=C)Cc1ccc(F)cc1	1.3	.	i	-2	-6	-27	-2.6	-0.7	-12
CC(C)(C)C1CCc2c(sc(NC(=O)c3ccco3)c2C(N)=O)C1 (stereo unspecified)	-298	0.72	.	-10	-5	.	-0.4	.	.
CN(C)S(=O)(=O)c1cc(NC2CC(=O)N(c3ccc(F)cc3)C2=O)ccc1Cl (stereo unspecified)	0.2	0.69	i	-7	2	13	-0.8	7.6	18
C=CCNC(=S)N/N=C1\CCS(=O)(=O)c2ccccc21	.	.	i	2	.	2	2.1	-3.6	-2
Cc1ccc(Cl)c(OCC(=O)NN2CCN(C)CC2)c1	0.6	0.69	i	-7	-2	0	-0.5	-6.9	-5
CCOc1ccc(NC(=O)CCn2c(=O)[nH]c3ccsc3c2=O)cc1	-2.1	0.75	.	-6	-5	.	-3.4	.	.
Cc1ccc(NC(=O)CCCn2c(=O)[nH]c3ccsc3c2=O)cc1	1.2	0.69	.	-4	1	.	0.1	.	.
COc1ccc(S(=O)(=O)N(C)CC(=O)NC2CCCCC2)cc1Cl	-0.7	0.65	.	0	2	.	-4.1	.	.
Cc1cc(=O)n2c(C(=O)Nc3ccc(C)c(C)c3)c(C(=O)Nc3ccccc3)sc2n1	-1.0	0.71	i	-4	5	3	18	-8.4	4
O=C(O)c1cscc1-c1cccc2ccccc12	.	.	.	.	.	-5	-0.3	-5.0	-7
O=C(CN1C(=O)C2CC=CCC2C1=O)Nc1nc(-c2ccc(F)c(F)c2)cs1 (stereo unspecified)	.	.	i	19	5	-26	1.4	1.0	-9
CCOc1ccc(/C=C2\SC(=S)N(CC(=O)Nc3ccccn3)C2=O)cc1	1.4	0.75	i	3	-6	11	-7.6	-2.4	2
COc1ccc(CCC(=O)Nc2c(C)n(C)n(-c3ccccc3)c2=O)cc1	0.6	0.67	i	1	0	3	1.6	2.6	8
O=[N+]([O-])c1ccccc1Oc1ccc(C(F)(F)F)cn1	4.5	0.69	i	-13	-24	2	-1.5	-2.3	0
CCNC(=S)NS(=O)(=O)c1ccc(CC)cc1	0.9	0.66	.	4	13	.	-2.6	.	.
CS(=O)(=O)c1ccc(Cl)c(NC(=O)COC(=O)c2cccc(S(=O)(=O)N3CCCC3)c2)c1	-0.5	0.68	i	0	19	3	-1.5	-3.3	0
Nc1cc(Cl)ccc1N1CCCCCC1	3.9	0.69	.	2	-11	13	4.6	0.7	13
c1ccc(CNc2ccc3c(c2)ncn3C2CCCCC2)nc1	-1.6	0.67	i	-8	94*	7	-0.5	5.5	10
COc1ccccc1NC(=O)CN1CCN(CC(=O)Nc2ccc(OCc3ccccc3)cc2)CC1	1.9	0.75	.	5	-16	.	4.1	.	.
Cc1c(NC(=O)CSc2nc3ccccc3c(=O)n2C(C)C)c(=O)n(-c2ccccc2)n1C	2.0	0.69	i	-6	1	.	-4.0	.	.
Cc1[nH]c2ccc(C(=O)N3CCC(C(N)=O)CC3)cc2c1C	4.4	0.71	i	-3	?	15	-1.9	0.1	15
CC(C)=C1C2CCC1C1C(=O)N(c3ccc4c(c3)OCO4)C(=O)C21 (stereo unspecified)	3.1	0.73	i	4	-8	.	-2.1	.	.
COc1cc2c3c(c1)-c1c(sn(-c4cc(OC)ccc4OC)c1=S)C(C)(C)N3C(=O)C2=O	7.1	0.75	.	9	-4	.	1.4	.	.
CCN(c1ccccc1)S(=O)(=O)c1ccc(C(=O)Nc2ncccc2O)cc1	6.7	0.7	i	-5	2	-3	-1.0	-1.6	2

# Shown with values under each structure: part of the list above.
# Sequence of screens: UCH37 inh	E coli growth	FGF22 binding	Beta2AR agonist	ALR inh	rRNA inh HTS OD600	HNF4A DNA FP	rRNA inh HTS RFP	rRNA inh HTS
Cc1ccc(C(=O)N2CCOCC2)cc1S(=O)(=O)Nc1cccc(C)c1C
  -0.4	0.77	.	-1	-1	.	-1.2	.	.
COCCNC(=O)CN(C(=O)c1ccc(N2CCCC2)nc1)c1ccc(F)c(Cl)c1
  .	.	i	-18	12	9	5.3	1.9	6

# (more compounds)
smiles	UCH37 inh	E coli growth	FGF22 binding	Beta2AR agonist	ALR inh	rRNA inh HTS OD600	HNF4A DNA FP	rRNA inh HTS RFP	rRNA inh HTS
CN(C(=O)c1ccc2c(c1)OCO2)C1CCCCC1	-1.2	0.68	i	-2	4	7	0.8	-0.2	-1
Nc1ccc(C(=O)N/N=C2\CCCc3c2[nH]c2ccccc32)cc1	.	.	.	8	23	.	1.6	.	.
COc1ccc2[nH]c(=O)c(-c3nnn(-c4ccc(Cl)nc4)n3)cc2c1	-3.8	.	.	0	-61	.	-4.9	.	.
CCN1CCN(c2cc(-c3ccccc3)nc3cc(-c4cccc(F)c4)nn23)CC1	-149	0.65	.	22	-1	.	0.9	.	.
CCOc1ccc(/C=N/NC(=O)C2CC2)cc1OC	.	.	i	0	-16	18	-2.1	2.3	25
CN(c1cccc(NC(=O)CN(c2ccc(Cl)c(Cl)c2)S(=O)(=O)c2ccccc2)c1)S(C)(=O)=O	4.0	0.71	.	0	8	.	-1.1	.	.
Cc1ccc(S(=O)(=O)Cn2nnnc2C(C(C)C)N2CCC(O)CC2)cc1 (stereo unspecified)	0.3	0.67	i	0	1	0	5.2	0.9	7
NC(=O)NS(=O)(=O)Oc1ccccc1	4.2	0.69	i	-8	10	16	2.3	6.2	7
COC(=O)c1ccc(CN2CCN(CC(C)C)C(CCO)C2)cc1 (stereo unspecified)	0.2	0.64	i	1	-3	11	-1.9	4.6	8
CCN1CCN(C(c2cccs2)C(C)NS(=O)(=O)c2ccc(Br)cc2)CC1 (stereo unspecified)	3.5	0.66	.	-1	0	.	-0.1	.	.
Cn1cnnc1SCC(=O)Nc1ccccc1F	3.2	0.71	i	-9	-4	-4	4.1	-2.3	-2
CCN(CC(=O)Nc1c(F)cccc1F)C(=O)CNC(=O)c1ccc2c(c1)OCO2	4.5	0.72	i	0	-4	21	-0.6	2.1	14
CC(=NCCc1ccccc1)C1=C(O)COC1=O	0.9	0.74	.	-14	2	.	-0.8	.	.
O=C(CN1CCN(c2ccccc2)CC1)N1CCc2[nH]c3ccccc3c2C1	3.4	0.69	.	-8	-8	.	-2.3	.	.
C=CCNC(=O)c1ccc(C2SCC(=O)N2Cc2ccccc2)cc1 (stereo unspecified)	5.3	0.68	i	-2	-5	3	2.8	4.4	2
Cc1cc(/C=C2\SC(=S)NC2=O)cc(C)c1O	6.9	0.64	i	12	.	-19	34*	9.0	3
O=C(Nn1cnc2ccccc2c1=O)c1ccc([N+](=O)[O-])cc1Cl	-0.2	0.67	i	-2	-6	5	2.4	-2.4	7
NS(=O)(=O)c1ccc(NC(=O)COC(=O)c2cn(-c3ccccc3)nc2-c2ccc(F)cc2)cc1	5.1	0.76	.	-1	0	.	-3.4	.	.
CC(=O)Nc1ccc(/C(C)=N/NC(=O)c2ccc(CN3CCOCC3)cc2)cc1	.	.	i	4	-2	5	-2.2	-5.2	6
CC(=O)N1CCN(S(=O)(=O)c2cccc(C(=O)NNC(=O)Cn3nc(C)cc3C)c2)CC1	5.8	0.67	i	-3	.	9	1.1	-1.5	8
CC(=O)OCC(=O)C1(O)CCC2C3CC(F)C4=CC(=O)CCC4(C)C3C(=O)CC21C (stereo unspecified)	0.3	0.69	i	-4	.	14	-4.0	-1.1	10
CCOC(=O)c1c(NC(=O)COC(=O)CCNS(=O)(=O)c2ccccc2)sc(C(=O)N(C)C)c1C	1.4	0.67	i	9	.	3	9.6	-1.7	0
CCOc1ccc(S(=O)(=O)Nc2ccccc2C(=O)N2CCCC2)cc1	1.7	0.66	i	-1	-2	-6	-1.7	0.6	-11
COc1ccc(C(=O)COC(=O)C(C)N2C(=O)C3C4CCC(C4)C3C2=O)cc1 (stereo unspecified)	0.1	0.67	i	4	-5	-20	4.8	0.9	-3
CC(C)(C)OCC1CO1 (stereo unspecified)	0.0	0.67	i	-1	9	-10	2.2	-2.2	-4
CCNc1nc(NCC)n2c(SCC(=O)Nc3ccc(C)cc3Br)nnc2n1	1.8	0.71	i	3	-1	1	-2.0	3.3	0
O=S(=O)(Cc1ccccc1)N1CCN(Cc2c(F)cccc2Cl)CC1	1.4	0.7	i	-8	.	9	1.0	-1.1	5
Cc1ccnc(SC2CC(=O)N(c3ccc(Br)cc3)C2=O)n1 (stereo unspecified)	3.1	0.71	i	-7	2	6	-3.0	-2.6	8
Cc1nc(N)sc1C(=O)NN	3.9	0.67	i	3	-6	6	-2.1	-2.6	2
CC(=O)Nc1cccc(NC(=O)c2c(-c3c(Cl)cccc3Cl)noc2C)c1	2.5	0.71	i	-2	-3	3.1*	-3.9	-1.2*	-17*
CCCCOC(=O)CSC1=C(C#N)C(c2ccccc2OCC)C(C#N)C(=O)N1 (stereo unspecified)	2.4	0.65	.	1	18	-3	2.2	-2.6	-10
COc1cccc(C(=O)NCC(=O)OCC(=O)Nc2cc(OC)c([N+](=O)[O-])cc2C)c1	3.6	0.71	.	10	-10	.	1.5	.	.
Cc1nc(Cc2nnc(SCC(=O)N3CCN(c4ccc(F)cc4)CC3)o2)cs1	-3.2	0.68	i	-5	3	10	-4.1	-1.0	9
COC(=O)c1ccc(NC(=O)CCCCCn2nnc3ccccc3c2=O)cc1	2.7	0.69	i	-8	-18	9	-1.9	2.2	6
CC1CCN(C(=O)CSc2nnc(Cc3cccn3C)n2-c2ccc(F)cc2)CC1	1.3	0.74	i	-3	.	9	1.2	0.1	9
